Screens (PubChem)
Env fusion inh = HIV envelope-mediated fusion inhibition; 360,000 tested, 1.1% active; inhibition, % at 12.3 µM; HeLa-JRFL Env/CEM21 cell fusion, luciferase;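 active = mean replicate inhibition score of at least 50 and every replicate individually at or above 50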;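 also: 0% = plate neutral controls and 100% = maraviroc near 300 nM; one replicate is shown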
An asterisk follows results filed as active; [ ] = remark or other dose.

Env fusion inh,compound
-5[16.7 µM],CO[C@H]1CN(C)C(=O)c2cc(NC(=O)c3ccccc3)ccc2OC[C@@H](C)N(CC2CC2)C[C@H]1C
-11[16.7 µM],CC(C)(C)[S@](=O)N1Cc2cc(C(=O)NC3CCC3)nc(-c3cccc(-c4ccccc4F)c3)c2[C@@H]1CCO
12[16.7 µM],O=C(Cc1ccccn1)N[C@@H]1CC[C@@H](CCn2cc(-c3ccccc3)nn2)O[C@H]1CO
5[16.7 µM],CC(C)[C@@H]1COCc2cn(nn2)CC[C@H](Cc2ccccc2)C(=O)N1
-27,COc1ccc(-c2ccc3c(n2)CCCN3S(=O)(=O)c2ccc(F)cc2)cc1
1,O=C1NC(c2ccc3c(c2)OCO3)c2c(-c3ccccc3)n[nH]c21 (stereo not drawn)
10[16.7 µM],COc1ccc2c3c(n(C)c2c1)[C@H](CO)N(CC1CC1)CC31CCN(C(=O)CN2CCOCC2)CC1
-6[16.7 µM],CN(C)C(=O)C[C@@H]1CC[C@H]2[C@H](COc3ccc(NC(=O)NCc4ccccc4)cc3C(=O)N2C)O1
17,FC(F)(F)c1ccccc1Cc1c(-c2ccco2)nc2c3ccccc3ccn12
7[16.7 µM],C[C@H]1CN([C@@H](C)CO)C(=O)CCCn2cc(nn2)CO[C@H]1CN(C)C(=O)C1CCCCC1
-1[16.7 µM],CC(C)NC(=O)NCC[C@H]1CC[C@H](NS(=O)(=O)c2ccc(Oc3ccccc3)cc2)[C@@H](CO)O1
15[16.7 µM],COc1ccccc1C#Cc1cnc2c(c1)C(=O)N([C@H](C)CO)C[C@@H](C)[C@H](CN(C)C(=O)c1ccc3c(c1)OCO3)O2
-5[16.7 µM],COCC(=O)Nc1ccc2c(c1)OC[C@H](C)N(C(C)=O)C[C@H](C)[C@H](OC)CN(C)C2=O
-39[16.7 µM],COc1ccc2c3c([nH]c2c1)[C@H](CO)N(C(=O)Nc1ccc(F)cc1)CC31CN(S(=O)(=O)c2cccc(F)c2)C1
-17[16.7 µM],C[C@@H]1CN([C@H](C)CO)C(=O)c2cc(NS(=O)(=O)c3ccccc3)ccc2O[C@H]1CN(C)S(=O)(=O)c1ccc(Cl)cc1
13[16.7 µM],O=C(C[C@H]1C[C@@H]2c3cc(NC(=O)Cc4ccncc4)ccc3O[C@@H]2[C@H](CO)O1)NCc1ccccn1
13[16.7 µM],CCC(=O)Nc1ccc2c(c1)OC[C@@H](C)N(C(=O)COC)C[C@@H](C)[C@@H](OC)CN(C)C2=O
-2[16.7 µM],COc1ccc2c3c(n(C)c2c1)[C@H](CO)N(Cc1ccccc1)CC31CN(C(=O)Nc2cccc(F)c2)C1
-6[16.7 µM],CO[C@H]1CC[C@@H]2CCN(C)C(=O)C[C@@H](c3ccccc3)CN(C)C(=O)c3cc(C#N)ccc3OC[C@@H]1O2
15[16.7 µM],CO[C@@H]1CN(C)C(=O)c2cc(NC(=O)c3ccc(F)cc3)ccc2OC[C@@H](C)N(C(=O)CN(C)C)C[C@@H]1C
-25[16.7 µM],O=C(C[C@@H]1CC[C@H]2[C@@H](COC[C@@H](O)CN2Cc2cc(F)ccc2F)O1)N[C@H]1CCN(Cc2ccccc2)C1
-10[16.7 µM],COc1ccc(S(=O)(=O)Nc2ccc3c(c2)[C@@H]2C[C@@H](CC(=O)N(C)C)O[C@@H](CO)[C@@H]2O3)cc1
-7[16.7 µM],C[C@H](CO)N1C[C@H](C)[C@H](CN(C)C(=O)Nc2ccc(C(F)(F)F)cc2)Oc2ccc(NC(=O)Cc3ccccc3)cc2C1=O
10[16.7 µM],CN1C(=O)c2cc(NC(=O)c3ccccc3Cl)ccc2OC[C@H]2O[C@H](CC(=O)NCC(F)(F)F)CC[C@@H]21
13,COc1ccc(Cc2c(-c3ccc(F)cc3)nc3ccc(C)cn23)c(C)c1
5[16.7 µM],CCC(=O)N(C)C[C@H]1Oc2cc(C3=CCCCC3)ccc2S(=O)(=O)N([C@@H](C)CO)C[C@@H]1C
-2[16.7 µM],C[C@H](O)C#Cc1cnc2c(c1)C(=O)N([C@H](C)CO)C[C@@H](C)[C@@H](CN(C)CC1CCOCC1)O2
-8[16.7 µM],COc1ccc(S(=O)(=O)N(C)C[C@H]2Oc3ncc(/C=C/c4ccccc4)cc3C(=O)N([C@H](C)CO)C[C@H]2C)cc1
-7[16.7 µM],C[C@@H]1CN([C@@H](C)CO)C(=O)c2cc(NC(=O)c3ccccc3)ccc2O[C@@H](C)CCCCO[C@@H]1CN(C)C(=O)c1ccccc1
-22[16.7 µM],CCCNC(=O)Nc1ccc2c(c1)OC[C@@H](C)N(CCC(F)(F)F)C[C@H](C)[C@H](OC)CN(C)C2=O
-3[16.7 µM],CO[C@H]1CN(C)C(=O)c2cc(NC(=O)c3ccc4c(c3)OCO4)ccc2OC[C@H](C)NC[C@@H]1C
14[16.7 µM],COC(=O)C[C@@H]1CC[C@H](NS(=O)(=O)c2ccccc2F)[C@H](CO)O1
21,COc1cc(-n2c(C)cc(O)cc2=O)ccc1Cl
-8[16.7 µM],C[C@@H]1CN([C@@H](C)CO)C(=O)Cc2cc(NC(=O)Cc3cn(C)c4ccccc34)ccc2O[C@H]1CN(C)Cc1ccc(-c2ccccc2)cc1
3[16.7 µM],CN(C)c1ccc2c(c1)[C@H]1C[C@H](CC(=O)O)O[C@H](CO)[C@H]1O2
16[16.7 µM],CCNC(=O)[C@H]1[C@H](CO)[C@H]2Cn3c(ccc(-c4ccc(F)cc4)c3=O)[C@H]2N1C(=O)Cc1cccnc1
3,COC(=O)CC(=O)CC(NS(=O)(=O)c1ccc(C)cc1)c1ccccc1 (stereo not drawn)
-5[16.7 µM],CCS(=O)(=O)Nc1ccc2c(c1)C(=O)N(C)[C@@H]1CC[C@@H](CC(=O)N[C@@H]3CCN(Cc4ccccc4)C3)O[C@@H]1CO2
-19[16.7 µM],CO[C@@H]1CN(C)C(=O)c2ccc(NC(C)=O)cc2OC[C@@H](C)N(C(=O)c2ccccc2F)C[C@@H]1C
25,Cc1ccc(-c2nc3c(Br)cc(C)cn3c2Cc2cccc(Cl)c2)cc1
9[16.7 µM],C[C@H](CO)N1C[C@H](C)[C@@H](CN(C)C)OCc2ccccc2-c2c(n(C)c3ccccc23)C1=O
3[16.7 µM],COc1ccc(CNC(=O)C[C@@H]2C[C@@H]3c4cc(NC(=O)C5CCC5)ccc4O[C@@H]3[C@@H](CO)O2)cc1
-5[16.7 µM],O=C(O)CCCCCCC(=O)NOCc1ccccc1
27[16.7 µM],Cc1ccc(S(=O)(=O)Nc2ccc3c(c2)C(=O)N([C@H](C)CO)C[C@H](C)[C@@H](CN(C)Cc2ccc(C(F)(F)F)cc2)O3)cc1
13[16.7 µM],CO[C@H]1CN(C)C(=O)c2cc(NC(=O)c3ccccc3F)ccc2OC[C@H](C)N(CC2CCOCC2)C[C@H]1C
-7,Cc1ccc2nc(-c3cccc(Cl)c3)c(Cc3ccsc3)n2c1
-112,OCc1ccccc1OCc1ccccc1
-36,O=C(C(=O)N1CCC(CNS(=O)(=O)c2ccc(F)c(F)c2)CC1)c1cc2ccccc2o1
-22[16.7 µM],C[C@H](CO)N1C[C@H](C)[C@H](CN(C)C(=O)Nc2ccc(C(F)(F)F)cc2)Oc2ccc(NS(=O)(=O)c3ccccc3)cc2C1=O
11[16.7 µM],Cc1cccc(NC(=O)Nc2ccc3c(c2)C(=O)N(C)[C@H]2CC[C@@H](CC(=O)NCc4ccccc4Cl)O[C@@H]2CO3)c1

Carrying on:
Env fusion inh,compound
16[16.7 µM],CO[C@@H]1CC[C@H]2CCN(C)C(=O)CCCN(C)C(=O)c3cc(C#N)ccc3OC[C@H]1O2
-10[16.7 µM],C[C@@H]1CN([C@@H](C)CO)C(=O)Cc2cc(NS(=O)(=O)c3ccc(Cl)cc3)ccc2O[C@@H]1CN(C)C(=O)Nc1ccc2c(c1)OCO2
21[16.7 µM],Cc1noc(C)c1NC(=O)N(C)C[C@H]1Oc2c(NC(=O)Nc3ccccc3)cccc2C(=O)N([C@H](C)CO)C[C@H]1C
-10[16.7 µM],C[C@H]1CN([C@@H](C)CO)S(=O)(=O)c2ccc(C3=CCCCC3)cc2O[C@H]1CN(C)CC1CC1
4[16.7 µM],CC(C)C[C@@H]1COCn2nncc2CCCC(=O)N1
-120[16.7 µM],C[C@H](CO)N1C[C@H](C)[C@@H](CN(C)Cc2ccncc2)Oc2ccc(NC(=O)Nc3cccc4ccccc34)cc2CC1=O
-26[16.7 µM],C[C@@H]1CN([C@@H](C)CO)C(=O)c2cccc(NS(=O)(=O)c3cccs3)c2O[C@@H]1CN(C)C(=O)Nc1ccccc1
3,CCc1cc2c(nc1CC)CCCN2C
10[16.7 µM],O=C(C[C@H]1CC[C@H](NC(=O)Cc2cccnc2)[C@H](CO)O1)Nc1ccc(-c2ccccc2)cc1
30[16.7 µM],COc1ccc(C#Cc2ccc3c(c2)[C@H]2[C@H](CCN2C(=O)C2CCCC2)[C@@H](CO)N3)cc1
-3[16.7 µM],COCCNC(=O)C[C@H]1C[C@@H]2c3cc(NC(=O)Nc4ccc(C(F)(F)F)cc4)ccc3O[C@@H]2[C@H](CO)O1
-7[16.7 µM],C[C@@H]1CN([C@H](C)CO)C(=O)c2ccccc2-c2ccccc2CO[C@H]1CN(C)S(=O)(=O)c1cccs1
6[16.7 µM],C[C@H](CO)N1C[C@H](C)[C@@H](CN(C)C(=O)[C@@H](Cc2ccccc2)N(C)C)OCc2ccccc2-c2ccccc2C1=O
-7[16.7 µM],C[C@@H]1CN([C@H](C)CO)C(=O)c2cc(NC(=O)CCN3CCOCC3)ccc2O[C@H]1CN(C)Cc1ccc(-c2ccccc2)cc1
0[16.7 µM],O=C(C[C@@H]1C[C@@H]2c3cc(NC(=O)C4CCOCC4)ccc3O[C@@H]2[C@H](CO)O1)NCc1ccc(Oc2ccccc2)cc1
7,CCCN(C(=O)CCc1cn(CCC)c2ccccc12)c1ccc(N(C)c2ccccn2)cc1
-17[16.7 µM],COc1ccc(C[C@H]2CCn3cc(nn3)COC[C@@H](C(C)C)NC2=O)cc1
23[16.7 µM],COCC(=O)N(C)C[C@@H]1Oc2ncc(C#CC(C)(C)O)cc2C(=O)N([C@H](C)CO)C[C@H]1C
-17[16.7 µM],CN1C(=O)c2cc(NS(C)(=O)=O)ccc2OC[C@@H]2O[C@H](CC(=O)NC3CCCCC3)CC[C@@H]21
-1[16.7 µM],COc1ccc(NC(=O)N(C)C[C@@H]2Oc3ccc(N(C)C)cc3C(=O)N([C@@H](C)CO)C[C@H]2C)cc1
2,COc1ccc(Sc2cccc(Cl)c2)c(C(=O)O)c1
-6[16.7 µM],Cc1noc(C)c1NC(=O)N(C)C[C@H]1Oc2ccc(NC(=O)Cc3ccccc3)cc2C(=O)N([C@@H](C)CO)C[C@H]1C
0[16.7 µM],COc1ccc(NC(=O)N2[C@@H]3CNC[C@H]2C3c2ccc(-c3ccc(F)cc3)cc2)cc1 (stereo partly drawn)
-13[16.7 µM],O=C(C[C@H]1CC[C@@H]2[C@H](COC[C@@H](O)CN2S(=O)(=O)c2ccccc2)O1)NCCN1CCCCC1
16[16.7 µM],Cc1noc(C)c1NC(=O)Nc1ccc2c(c1)C(=O)N([C@H](C)CO)C[C@@H](C)[C@H](CN(C)C(=O)Nc1ccccc1)O2

Rewritten as tab-separated lines: five of the compounds above.
SMILES	Env fusion inh
O=C(C[C@H]1CC[C@H](NC(=O)Cc2cccnc2)[C@H](CO)O1)Nc1ccc(-c2ccccc2)cc1	10[16.7 µM]
CO[C@H]1CC[C@@H]2CCN(C)C(=O)C[C@@H](c3ccccc3)CN(C)C(=O)c3cc(C#N)ccc3OC[C@@H]1O2	-6[16.7 µM]
CO[C@H]1CN(C)C(=O)c2cc(NC(=O)c3ccc4c(c3)OCO4)ccc2OC[C@H](C)NC[C@@H]1C	-3[16.7 µM]
COC(=O)C[C@@H]1CC[C@H](NS(=O)(=O)c2ccccc2F)[C@H](CO)O1	14[16.7 µM]
C[C@H](O)C#Cc1cnc2c(c1)C(=O)N([C@H](C)CO)C[C@@H](C)[C@@H](CN(C)CC1CCOCC1)O2	-2[16.7 µM]

Next section:
Env fusion inh,compound
7,COC(=O)c1cc2c(c3c4cc(F)ccc4n(S(=O)(=O)c4ccccc4)c13)C(=O)N(Cc1ccco1)C2
10[16.7 µM],C[C@@H]1CN([C@@H](C)CO)C(=O)c2c(c3ccccc3n2C)-c2ccccc2CO[C@H]1CN(C)S(=O)(=O)c1ccsc1
-7[16.7 µM],COC(=O)C(CC#Cc1ccc2c(c1)[C@]1(C(=O)N2)[C@H](c2ccc(OCCO)cc2)N2[C@H](c3ccccc3)[C@H](c3ccccc3)OC(=O)[C@H]2[C@@H]1C(=O)Nc1nc2ccccc2s1)C(=O)OC
85*[16.7 µM],Cc1ccc(S(=O)(=O)Nc2cccc3c2O[C@H](CN(C)Cc2ccc(Cl)c(Cl)c2)[C@H](C)CN([C@H](C)CO)C3=O)cc1
12[16.7 µM],COc1ccc(COC[C@]23NC(=S)N(C(=O)c4ccccc4)[C@H](c4ccccc4O2)[C@H]3CO[Si](C)(C)C(C)(C)C)cc1
-25,O=C(c1ccccc1)c1ccc(N2CCOCC2)cc1
74*[16.7 µM],CO[C@@H](CN(C)S(=O)(=O)c1ccc(Cl)cc1)[C@H](C)CN([C@@H](C)CO)S(=O)(=O)c1cccc(Cl)c1
5[16.7 µM],CCC(=O)N1C[C@H](C)[C@@H](OC)CN(C)C(=O)c2ccc(NC(=O)c3ccc(F)cc3)cc2OC[C@@H]1C
-4[16.7 µM],O=C(C[C@H]1CC[C@H]2[C@@H](COC[C@@H](O)CN2C(=O)Nc2ccc(Cl)cc2)O1)NCCc1ccncc1

Among those listed so far, these contain a cyano group:
Env fusion inh,compound
-6[16.7 µM],CO[C@H]1CC[C@@H]2CCN(C)C(=O)C[C@@H](c3ccccc3)CN(C)C(=O)c3cc(C#N)ccc3OC[C@@H]1O2
16[16.7 µM],CO[C@@H]1CC[C@H]2CCN(C)C(=O)CCCN(C)C(=O)c3cc(C#N)ccc3OC[C@H]1O2

Some of the compounds tested (hit frequency here may not be typical).
